NPYLR7 ag = mosquito NPYLR7 agonism; AID 1259423; HEK293T NPYLR7/Galpha15, GCaMP6s calcium fluorescence; activation, % at 10 µM; 270,000 compounds, 0.15% hits; in the data active = activation above about 40%;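 note: 0% = vehicle and 100% = reference agonist at the receptor; some compounds past the cut are filed as inactive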
NPYLR7 ag max-min = also measured in NPYLR7 ag; calls as there; activation, %; measured here: Max-Min RFU normalised activation; some inactives read as strong as hits;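 span of the calcium signal over five minutes; 0% = vehicle and 100% = native peptide agonist; compound fluorescence can raise it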
* = called active by the depositor; & = joins results of further samples.

A first look:
smiles	NPYLR7 ag	NPYLR7 ag max-min
CC1(C)CC(=O)c2sc(NC(=O)c3ccc([N+](=O)[O-])s3)nc2C1	7.6	7.7
O=C(NCC1CCN(Cc2ccccc2F)C1)c1ccncc1Cl (stereo not drawn)	4.1	1.2
O=C(c1cccs1)N1CCSC12C(=O)N(Cc1ccccc1Cl)c1ccc(F)cc12 (stereo not drawn)	-3.3	5.7
O=C(NC1CCCc2c1cnn2-c1ccccn1)C1(N2CCCCC2)CCCCC1 (stereo not drawn)	1.9	-3.7

All compounds of this part, repeating the preview:
smiles	NPYLR7 ag	NPYLR7 ag max-min
CC1(C)CC(=O)c2sc(NC(=O)c3ccc([N+](=O)[O-])s3)nc2C1	7.6	7.7
O=C(NCC1CCN(Cc2ccccc2F)C1)c1ccncc1Cl (stereo not drawn)	4.1	1.2
O=C(c1cccs1)N1CCSC12C(=O)N(Cc1ccccc1Cl)c1ccc(F)cc12 (stereo not drawn)	-3.3	5.7
O=C(NC1CCCc2c1cnn2-c1ccccn1)C1(N2CCCCC2)CCCCC1 (stereo not drawn)	1.9	-3.7
CC(Nc1ccc(Cl)c(C#N)n1)C(=O)N1CCCCC1C (stereo not drawn)	-3.9&0.2	-3.6&-0.1
CCN(CC)c1ccc(N2C(=O)/C(=C/c3ccc([N+](=O)[O-])cc3)C=C2c2ccccc2)cc1	-0.5	7.5
CCN(CC)CC1CCN(CC(=O)Nc2nc(-c3ccc(C)c(C)c3)cs2)C1 (stereo not drawn)	9.7	5.1
C=CCCC(=O)N[C@H]1CC[C@@H]2SC[C@@H](C(=O)O)N2C1=O	14.4	6.3
CC(C)C[C@H]1CN(c2cncc(C(=O)N3CCOCC3)n2)CC[C@@]1(C)O	1.5	-1.7
COc1ccc2c(c1)CCc1cc(CCC(=O)NCC3CCCO3)n(CCc3cccc(F)c3)c1-2 (stereo not drawn)	0.1	-1.1
Cc1cc(C(F)(F)F)c(C#N)c(=S)[nH]1	11.0&4.1	8.8&3.6
CC(C)(C)c1cn2nc(N3CCCC(C(=O)Nc4ccccc4)C3)sc2n1 (stereo not drawn)	7.7	16.0

3 neighbouring records out of the list so far, quoted:
smiles	NPYLR7 ag	NPYLR7 ag max-min
CCN(CC)c1ccc(N2C(=O)/C(=C/c3ccc([N+](=O)[O-])cc3)C=C2c2ccccc2)cc1	-0.5	7.5
CCN(CC)CC1CCN(CC(=O)Nc2nc(-c3ccc(C)c(C)c3)cs2)C1 (stereo not drawn)	9.7	5.1
C=CCCC(=O)N[C@H]1CC[C@@H]2SC[C@@H](C(=O)O)N2C1=O	14.4	6.3

Next section:
smiles	NPYLR7 ag	NPYLR7 ag max-min
COc1ccc(OC)c(CN2CCN(Cc3ccccc3F)C(CCO)C2)c1 (stereo not drawn)	-2.5	-10.9
CSc1ccc(-c2nc(CN3CCN(c4ncccn4)CC3)c(C)o2)cc1	3.4	0.8
CCN1CC(C)C(NS(=O)(=O)N2CCOC(C)C2)C1 (stereo not drawn)	9.0	5.4
CS(=O)(=O)N1CCCC(C(=O)Nc2nc(-c3cc(Cl)sc3Cl)cs2)C1 (stereo not drawn)	-2.5	-3.8
CSc1ccc(NC(=O)N2CCN(C(=O)CN3CCc4sccc4C3c3cccc(F)c3)CC2C)cc1 (stereo not drawn)	11.9	2.8
CC(C)(C=O)Cc1cc(C(C)(C)C)c(O)c(C(C)(C)C)c1	6.9	-6.7
CCCCCCCCCCn1c(=O)c2c(nc3oc(C)c(C)n32)n(C)c1=O	8.2	11.6
O=c1oc2ccc(Br)cc2cc1-c1nc2ccccc2s1	23.2&20.1	21.0&20.9
N#CC1(NC(=O)c2ccc3ccccc3c2)CCCCC1	-23.1	-23.6
COc1ccc(CN(CC2CCCO2)C(=O)c2cccc(F)c2)cc1OS(=O)(=O)c1ccc(F)cc1 (stereo not drawn)	15.3	3.0
C=c1onc(-c2ccccc2)c1=c1[nH]/c(=C\c2ccc(SC)cc2)c(=O)o1	-2.9	-2.7
N#CC(C#N)=c1c2nn(Cc3ccccc3)nc2c(=C(C#N)C#N)c2nn(Cc3ccccc3)nc12	0.3	-5.2
CCc1cccc2sc(N(Cc3ccccn3)C(=O)Cc3ccc(S(=O)(=O)CC)cc3)nc12	-3.5	-8.7
CCn1ccnc1-c1nccn1CC1CCN(Cc2ccccc2)C1 (stereo not drawn)	1.3	-3.3
CC(=O)Nc1ccc(NC(=O)c2csc([C@@H]3C[C@H](O)[C@@H](CO)O3)n2)cc1	4.3	4.2
CCC(Nc1cccc(OC)c1)C(=O)N(C)Cc1cccc2cccnc12 (stereo not drawn)	-5.2	-12.6
O=C1/C(=C/c2ccc(Cl)cc2)C=C(c2ccccc2)N1c1ccc(I)cc1	-5.6	-3.8
CCCSc1nc2c(c(=O)n1-c1ccccc1OC)SCC2	2.7	2.8
COc1ccc(-n2nnc3c(=O)n(Cc4cccc(C)c4)cnc32)cc1	1.3	2.3
COC(=O)Cn1c(O)c(N=NC(=O)CNC(=O)c2cccnc2)c2ccccc21	-7.0	0.3
CCN(CC)P1(=Nc2ccccc2OC)C(=C2N(C)c3ccccc3C2(C)C)C=NN1C (stereo not drawn)	-3.3	3.1
COc1cc2nc(NC(=O)C3CCOCC3)sc2cc1OC	0.0	-1.3
CN(Cc1cc(-c2cccs2)n[nH]1)C(=O)Cc1cn2ccsc2n1	-5.3	-6.1
CCCN(CC(=O)N1CC(=O)N(c2cccc(C)c2)C1)S(=O)(=O)c1c(C)cc(C)cc1C	18.2	21.8

Part of the list above in a different format:
Values in the order: NPYLR7 ag, NPYLR7 ag max-min
> CCc1cccc2sc(N(Cc3ccccn3)C(=O)Cc3ccc(S(=O)(=O)CC)cc3)nc12
  -3.5, -8.7
> CCn1ccnc1-c1nccn1CC1CCN(Cc2ccccc2)C1 (stereo not drawn)
  1.3, -3.3

(cont.)
smiles	NPYLR7 ag	NPYLR7 ag max-min
CCO[C@H]1CN(C)C[C@@H]1NC(=O)c1cc(COc2cccc(F)c2)[nH]n1	-1.8	6.7
CCc1ocnc1C(=O)NC(C)c1cnc(N2CCCCCCC2)nc1C (stereo not drawn)	3.1	4.3
CCCNC(=O)N1CCC2(CC1)NC(CC(C)C)C(=O)N2CCc1ccccn1 (stereo not drawn)	17.9	3.5
Cc1nc2c(Cl)cc(Cl)cc2c(=O)o1	6.1	3.7
FC(F)(F)c1cc(-c2cccs2)nc(NCC2CCCO2)n1 (stereo not drawn)	-2.2	-4.4
Cc1ccc(C2=NN(C(=O)CN3CCC4(CC3)OCCO4)C(c3cccc(F)c3)C2)c(C)c1 (stereo not drawn)	-0.9	5.0
CN1CCC2(CC1)CN(C(=O)c1[nH]nc(N)c1-c1ccccc1)CCN2C	7.8	6.5
Cc1ccccc1CN1C(=O)C(C)(C)ON=C1c1ccco1	10.0	1.5
COc1ccc(OC)c(NC(=Nc2nc(C)cc(C)n2)NC(=O)c2ccccc2)c1	-4.9	-5.4
C=C1C(C(=O)N2CCOCC2)C1C(=O)N1CCOCC1 (stereo not drawn)	19.3	28.2
O=C(Cn1c(-c2ccc(Cl)cc2)n[nH]c1=S)Nc1nnc(C2CC2)s1	0.6	-3.2
COC(=O)C1=C(C(=O)OC)C(C(=O)OC)N2C(=C1C(=O)OC)c1sccc1-c1cscc12 (stereo not drawn)	5.4	1.5
O=C(N[C@H]1CCCCNC1=O)c1ccc(N2CCC(NCCc3ccccn3)CC2)cc1	6.3	5.9
Cc1nc2ccccn2c1C(=O)OCc1cc(-c2ccco2)on1	-3.1	-5.8
O=C(CCN(c1nc(C2CC2)nc2cc(Cl)ccc12)C1CC1)NCCN1CCOCC1	12.1	16.1
CCN(CC)c1nc(C)nc2c1sc1nc3c(cc12)COC(C)(C)C3	3.6	1.8
COc1ccc(-c2cc(C(=O)N3CCN(C(=O)C45CC6CC(CC(C6)C4)C5)CC3)c(C)n2-c2ccc(C)cc2)cc1	-3.5	3.0
Cc1nnc2ccc(-c3cccc(NS(=O)(=O)c4cccc(C(F)(F)F)c4)c3)nn12	-13.8	-11.4
c1ccc(-n2ccnc2)c(Cn2ccnc2-c2ccc3c(c2)OCO3)c1	8.1	-1.6
O=C1C2C3C=CC(C4CC34)C2C(=O)N1c1cc([N+](=O)[O-])ccc1Cl (stereo not drawn)	-0.3	-5.3
Cc1ccsc1CCNC(=O)C1CC(=O)N(Cc2ccncc2)C1 (stereo not drawn)	15.7	4.7
CCOC(=O)c1ccc(S(=O)(=O)N2CCN(c3ccc4nncn4n3)CC2)cc1	1.3	7.1
CN(C)c1ccc(C=NNC(=O)c2cccs2)cc1	-6.7	-10.5
Brc1cccc2c(N3CCC4(CC3)OCCO4)ccnc12	17.8	15.4
Oc1c(Cl)cc(Cl)c2ccc(N/N=C/C3=C(Cl)c4cc(Cl)ccc4SC3)nc12	13.5	4.5
O=C1c2ccccc2C(=O)c2c1oc1c3c(ccc21)OCN(C1CCCC1)C3	6.5	8.8
COc1cccc(CN2CCn3nc(C(=O)NCc4ccc(-c5ccccc5)cc4)cc3C2=O)c1	20.6	4.9
CC=CCn1c(=O)c2c(nc3n2CC(C)=NN3Cc2ccccc2F)n(C)c1=O	-7.8	-10.9
O=C(c1ccc(Oc2ccccc2)cc1)C1CCCN(CCn2cncn2)C1 (stereo not drawn)	10.8	8.1
COc1ccc(-c2cc(N3CCc4ccccc43)ncn2)cc1	0.3	-1.5
COC(=O)c1ccc(NCC2=CC(C)(C)COc3ccc(OC)cc32)cc1	1.6	11.2
Cn1cc(-c2noc(-c3ccc4c(=O)n(C)c(=S)[nH]c4c3)n2)cn1	13.2	11.5
Cc1cc(C)n(-c2nc(-c3ccccc3)cc(=O)n2CC(=O)N2CCCCCC2)n1	-0.2	6.5
c1ccc(Oc2ccccc2-c2cc(NCCc3cccnc3)n3nccc3n2)cc1	-2.2	-6.3
CCOC(=O)c1ccc2c(c1)NC(=O)C(C)N2C(=O)c1cccc2c1OCO2 (stereo not drawn)	4.0	2.0
CN(CC(=O)NC(C)(C)C)Cc1nc(-c2cc3ccccc3o2)cs1	-3.9	-2.7
CN(C)c1ccc(CC(=O)N2CCCC(N(C)C)CC2)cc1 (stereo not drawn)	-6.2	-9.4
CC(C)(C)c1ccc(/C=C/C(=O)n2cccn2)cc1	-8.4	-20.5
Cc1nnc(SCc2cccc(C(F)(F)F)c2)n1-c1cccc(Cl)c1	24.2	22.9
Cc1cc(C)nc(N(C#N)CC(=O)Nc2ccc(Cl)cc2)n1	-5.9	-10.8
Cc1ccc(C(=O)NC2CC2)cc1NC(=O)N1C2CCC1CC(O)C2 (stereo not drawn)	0.1	-3.0
COc1ccc(CCN2CC(NC(=O)Cc3cccnc3)CC2=O)cc1 (stereo not drawn)	15.6	3.2
CN(CCc1ccccn1)c1ncccc1CNC(=O)c1ccc2occc2c1	3.5	2.4
CC(C)[C@H](NC(=O)CCCOc1ccccc1)c1nnc2c(C(F)(F)F)cccn12	-9.6	-18.1
CC1(C)CC[C@]2(C(=O)O)CC[C@]3(C)C(=CCC4[C@@]5(C)CC[C@H](O)[C@@](C)(CO)C5CC[C@]43C)C2C1 (stereo partly drawn)	-5.8	-6.8
CCOP(=O)(Cc1ccc(NC(=O)Nc2cccc(F)c2)cc1)OCC	-8.3	-14.0
O=C(CSc1ncccc1C(=O)N1CCC(Cc2ccccc2)CC1)Nc1ccc(F)c(F)c1	-3.2	2.6
COCCCN(CC(=O)N1CCc2sccc2C1COc1ccc(Cl)c(C)c1)C(=O)c1cccc(OC)c1 (stereo not drawn)	13.6	12.0
Fc1ccc(C=Cc2ccc3ccccc3n2)cc1	1.9	-1.3
CCN(CC)S(=O)(=O)c1ccc2c(c1)nc(SCc1ccc(SC)cc1)n2C(C)C	6.4	2.7
O=C(CCc1ccccc1Br)NCC1CCCC(O)C1 (stereo not drawn)	6.6	5.0
Cc1cccc(C2c3cccn3-c3ccccc3N2C(=O)CN(C(=O)C2C[C@H]2c2ccccc2)C2CC2)c1 (stereo partly drawn)	-2.8	-2.1
Cc1ccccc1C1c2ccsc2CCN1C(=O)CN(C(=O)COc1ccccc1)C1CCCCC1 (stereo not drawn)	17.4	14.0
COc1ccc(N2C(=O)c3ccccc3NC2c2ccc(OC)c(COc3ccc(NC(C)=O)cc3)c2)cc1 (stereo not drawn)	8.6	3.5
CCn1cc(S(=O)(=O)Nc2cccc(Oc3ccncc3)c2)cn1	1.4	0.8
O=C(CCn1cnc2ccccc2c1=O)NCC1(N2CCOCC2)CCCCC1	7.9	1.7
CCOC(=O)c1cc(=O)n(-c2ccccc2)[nH]1	-11.3	-15.7
COc1c(OC)c(O)c2c3c(cc4ccccc42)NC(=O)c13	-7.6	-16.7
O=C(CCNC(=O)c1ccccc1F)NCCN1CCNC1=O	5.7	4.0
O=C1CC2(CCN(Cc3ccc(C(F)(F)F)nc3)CC2)CN1	-4.0	-10.1

(next part)
smiles	NPYLR7 ag	NPYLR7 ag max-min
CCCc1cc(C(=O)N2CCCC2Cc2ccccc2)n[nH]1 (stereo not drawn)	3.8	3.1
Cc1[nH]c(=S)sc1CC(=O)Nc1cccc(OCc2ccc(F)cc2)c1	4.3	1.0
Cc1ccccc1OC1CN(C(=O)CCC(=O)NC2CCCC2)C1	3.6	4.0
CC1=NN(c2ccc(C(=O)NCCc3c(F)cccc3F)cc2)CC1	2.7	-0.5
COc1ccc(-c2c(-c3ccc(O)cc3O)n[nH]c2C)cc1	0.4	6.0
CN(C)C(=O)N1CCCN(c2nc(Cc3ccccc3)nc3c2cnn3-c2ccccc2)CC1	12.0	11.1
CC(C)N(Cc1cccc(Cl)c1)C(=O)c1ccn(C)c(=O)c1	18.6	14.0
S=c1[nH]c2ccccc2n1-c1cc(-c2cccs2)nn1-c1ccccc1	3.3	7.9
Oc1ccccc1-c1nc2ccc(Br)cn2c1NCc1ccccc1	14.7	12.2

Screening data: PubChem, Fisher Drug Discovery Resource Center

This is a subset. The share of hits here may be higher or lower than overall.
